VDR inhibitor = inhibitors of human vitamin D receptor; P11473; VDR-SRC2-3 peptide fluorescence polarization, 2 h; Potency, µM, without a hit: max response, negative = inhibition, hits mostly inhibitors; actives 0.93% (n = 400,000); active means well fitted inhibition curve with a large enough effect; inconclusive means small, poorly fitted or top-dose-only effect, or another doubt; inactive means no such curve, though single readings can be large or run the other way; further: series mostly up to about 120 µM
Target sequence (P11473 whole entry, looked up): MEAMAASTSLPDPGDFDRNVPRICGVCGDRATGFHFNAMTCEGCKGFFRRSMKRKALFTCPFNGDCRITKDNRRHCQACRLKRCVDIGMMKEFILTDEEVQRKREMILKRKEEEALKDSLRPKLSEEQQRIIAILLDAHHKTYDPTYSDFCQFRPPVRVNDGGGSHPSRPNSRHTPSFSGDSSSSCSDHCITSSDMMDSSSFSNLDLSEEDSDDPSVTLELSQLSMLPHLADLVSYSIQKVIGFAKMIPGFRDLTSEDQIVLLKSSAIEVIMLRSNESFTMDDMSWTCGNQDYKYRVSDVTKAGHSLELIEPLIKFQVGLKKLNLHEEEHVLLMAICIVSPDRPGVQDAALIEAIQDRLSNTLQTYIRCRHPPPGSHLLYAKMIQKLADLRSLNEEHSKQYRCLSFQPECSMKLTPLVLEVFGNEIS
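Signal is fluorescence polarization, reporting how far test compounds block the interaction of VDR with the SRC2-3 coregulator peptide after a 2 h room-temperature incubation.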
* hit, by the source's call; ? = inconclusive; & = joins results of further samples. On the % scale 0 is the no-effect control and ±100 the full control effect; potency means the concentration at half of the fitted maximal effect.

mol	VDR inhibitor
Cc1c(Cl)cccc1-n1nnnc1-c1cccs1	14%
CCN(CC)CCn1c(NCc2cccc(OC)c2OC)nc2ccccc21	-10%
Nc1ccccc1SCc1cc([N+](=O)[O-])cc2c1OCOC2	-12%
COc1ccc(NC(=S)NC2CC3CCCC(C2)N3C2CC2)cc1 (stereo not drawn)	0%
CCc1ccc(N2CC(C(=O)Nc3cccc(C(=O)NC4CC4)c3)CC2=O)cc1 (stereo not drawn)	0%
Cc1ccc(NC(=O)CCC(=O)NNC(=O)NC23CC4CC(CC(C4)C2)C3)cc1C	-20%
CCCSc1nc(C)c(-c2csc(C(C#N)=C3CCCC3)n2)cc1C#N	6%
CC(=O)/C(N=Nc1ccc2c(c1)OCCO2)=C(\C)O	-10%
O=C(NCCO[N+](=O)[O-])c1cccnc1	-26%&-5%
CCc1sc(C(=O)NNC(=O)c2cncc(Br)c2)cc1C	6%
Cc1cccc(OCC(=O)N=Nc2c(O)[nH]c3ccc([N+](=O)[O-])cc23)c1	3%
C=CCn1cc(F)c(=O)n(CC=C)c1=O	4%
Cc1nnc(NC(=O)c2c(F)cccc2F)s1	-9%
Cc1ccc(NC(=O)C2CC(=O)Nc3ncnn32)cc1Cl (stereo not drawn)	-17%
CCCCCCOc1ccc(N2C(=O)CC(SCCN)C2=O)cc1 (stereo not drawn)	10%

The list goes on; it opens with the 5 that closed the last part.
mol	VDR inhibitor
Cc1cccc(OCC(=O)N=Nc2c(O)[nH]c3ccc([N+](=O)[O-])cc23)c1	3%
C=CCn1cc(F)c(=O)n(CC=C)c1=O	4%
Cc1nnc(NC(=O)c2c(F)cccc2F)s1	-9%
Cc1ccc(NC(=O)C2CC(=O)Nc3ncnn32)cc1Cl (stereo not drawn)	-17%
CCCCCCOc1ccc(N2C(=O)CC(SCCN)C2=O)cc1 (stereo not drawn)	10%
COC(=O)C1=C(C)N(c2cccc(C)c2)C(=O)/C1=C\c1cccs1	12%
Cc1cc(C(=O)CSc2cccc[n+]2[O-])c(C)n1-c1ccccc1	15%
O=C(CCN1C(=O)c2ccccc2C1=O)Nc1sc2c(c1C(=O)NCc1ccco1)CCCC2	-16%
CCOc1ccc(NC(=O)CCC(=O)c2ccc(OC)cc2)cc1	-7%
CCCCN(CC)Cc1ccc(CNC(=O)Nc2ccc(F)cc2)o1	14%
COc1cc(OC)cc(-c2nc(-c3ccc(Br)cc3)no2)c1	-9%
Cc1ccc(C)c(OCCC(=O)OCC(=O)NC2CCS(=O)(=O)C2)c1 (stereo not drawn)	-1%
CCC(C)NCCCOc1ccc(C)cc1OC (stereo not drawn)	-12%
CCc1noc(C)c1C(=O)N1CCN(S(=O)(=O)c2ccccc2C(F)(F)F)CC1	-17%
O=C(CN1CCN(C(=O)c2cncn2-c2ccc(F)cc2)CC1)Nc1ccccc1C(F)(F)F	-7%
CCCn1c2ccccc2c2cnn(CC(=O)NCCCN(CC)c3ccccc3)c(=O)c21	19%
CNC(=S)N(CCc1c(C)[nH]c2ccc(C)cc12)Cc1ccc(OC)c(OC)c1	5%
O=C(O)c1ccccc1C(=O)NNc1ccc(F)cc1	-1%
CS(=O)(=O)N(CC(=O)N1CCOCC1)c1cc(Cl)ccc1Cl	-5%
COc1ccc(N2Cc3cccc(C(=O)NC(C)CCc4ccco4)c3C2=O)cc1 (stereo not drawn)	?

(next part)
mol	VDR inhibitor
CC(=O)N1C2=CCCC3CCCCC23c2ccccc21 (stereo not drawn)	-12%
CCC(/C=N/NC(=O)c1ccccc1F)CC	-2%
Cc1ccc(NC(=O)c2oc3ccccc3c2NC(=O)c2ccc3c(c2)OCO3)cc1	6%
Cc1ccc(S(=O)(=O)N2[C@@H](c3cccc(C)c3)C(C(=O)O)=C[C@H]2CC2CCCC2)cc1	-22%
CCOc1ccc(C(CC(=O)Nc2ccc(C(=O)OC)cc2)N2Cc3ccccc3C2=O)cc1OC (stereo not drawn)	13%
COc1cccc(C2CC(=O)Nc3cc4c(cc32)OCCO4)c1OC(C)C (stereo not drawn)	-8%
O=C(CCNS(=O)(=O)c1cccs1)Nc1nccs1	9%
CC(C)C(=O)Nc1ccc(NC(=O)c2ccc(COc3ccccc3)cc2)cc1	1%
CCOC(=O)C1=C(O)/C(=C\c2cc(C)n(-c3ccccc3F)c2C)N=C1C	-8%
CC1CCCC(NC(=O)CCC(=O)NCc2ccccc2)C1C (stereo not drawn)	8%
CCOc1ccc([C@@H]2CC=C(C(=O)O)CN2S(=O)(=O)c2ccc(C)cc2)cc1	-5%
CCOC(=O)C1C(C(=O)OC)=C(c2ccc(OC)cc2)c2ccccc2N1S(=O)(=O)C(F)(F)F (stereo not drawn)	0%&1%
O=C1/C(=C\c2ccc(O)c(O)c2)Oc2c1ccc(O[C@@H]1O[C@H](CO)[C@@H](O)[C@H](O)[C@H]1O)c2O	-1%
CCOc1cc(C(=O)Nc2cccc(-c3nc4ccccc4o3)c2)cc(OCC)c1OCC	-15%
c1cncc(-c2nc(NCc3ccc4c(c3)OCO4)c3ccccc3n2)c1	0%

The closing five entries of the part above come first, to join the parts:
mol	VDR inhibitor
CCOc1ccc([C@@H]2CC=C(C(=O)O)CN2S(=O)(=O)c2ccc(C)cc2)cc1	-5%
CCOC(=O)C1C(C(=O)OC)=C(c2ccc(OC)cc2)c2ccccc2N1S(=O)(=O)C(F)(F)F (stereo not drawn)	0%&1%
O=C1/C(=C\c2ccc(O)c(O)c2)Oc2c1ccc(O[C@@H]1O[C@H](CO)[C@@H](O)[C@H](O)[C@H]1O)c2O	-1%
CCOc1cc(C(=O)Nc2cccc(-c3nc4ccccc4o3)c2)cc(OCC)c1OCC	-15%
c1cncc(-c2nc(NCc3ccc4c(c3)OCO4)c3ccccc3n2)c1	0%
COC(=O)C1=C(C(=O)OC)[C@@H]2N(C)c3ccc(OC)cc3[C@@]23C[C@@H](C(=O)OC)N(C(=O)c2ccco2)C3=N1	?
CCc1ccc(NC(=O)C2C3CCC(O3)C2C(=O)O)cc1 (stereo not drawn)	-27%
COc1cc(OC)cc(-c2cc3nc(C)c(CCC(=O)Nc4ccccc4OC)c(C)n3n2)c1	8%
COc1ccccc1CN1C[C@@H]2C[C@@H](C3=Cc4cc(Cl)ccc4OC3)N3CCC[C@@]23C1=O	22%
N#CC(C#N)=C1CCCc2sccc21	7%
CCCSCC(=O)Nc1ncc2c(n1)-c1ccccc1CC2	-4%
CCc1ccccc1NC(=O)NCCN1CCCCC1	-2%
CC(=O)Nc1cc(S(=O)(=O)Nc2ccccc2)c(C)cc1C	-9%
CCOC1=C/C(=C/c2c(N)n3nc(CC(=O)N4CCCCC4)sc3nc2=O)C=CC1=O	-6%
CC(=O)c1c(N2CCCC2)[nH]c(-c2ccccc2)nc1=S	-16%
O=C(Nc1ccccc1C(=O)NCc1cccnc1)c1ccco1	10%
COc1ccc(CNS(=O)(=O)NCc2ccccc2F)cc1	2%
O=C(CSc1nnc(-c2ccccc2)n1Cc1ccccc1)N1CCOCC1	5%
COc1ccc(-n2c(SCC(=O)N3CCC(C)CC3)nc3c([nH]c4ccccc43)c2=O)cc1	-3%
CC(=O)NNC(=O)c1sc(=S)n(C)c1C	-15%

Next section.
mol	VDR inhibitor
CCCn1c(N)c(N2CCCCC2)c(=O)n(CC(=O)Nc2ccccc2C)c1=O	-1%
O=C(COC(=O)COc1ccccc1)Nc1ccc(OC(F)(F)F)cc1	-7%
CC(=O)N(NC(=O)c1ccccc1Cl)C1CC(=O)N(c2ccc(C)cc2)C1=O (stereo not drawn)	2%
O=C(NCc1ccccc1)C(c1cccnc1)N(C(=O)c1csnn1)c1ccccc1 (stereo not drawn)	9%
CC(C)(C)c1ccc(-n2ncc3c2CCCC3NC(=O)CCN2CCCCC2=O)cc1 (stereo not drawn)	-22%
CC(C)CCNC(=S)Nc1ccccn1	-1%
NC(=O)CSc1n[nH]c(=O)n1CCc1ccccc1	-9%
COc1ccc(C(=O)Nc2cc(-c3ccccc3)nn2-c2ccccc2F)cc1	-3%
CCOc1nc(-c2ccccc2)ccc1-c1noc(-c2cccnc2)n1	5%
O=C(Cn1c2ncccc2c(=O)n1-c1ccccc1)Nc1ccc(F)c(F)c1	2%
COc1cccc(NS(=O)(=O)c2ccc(-n3cccn3)cc2)c1	-2%
CC1CCN(CCNC(=O)C2CCN(S(=O)(=O)c3cccc4nsnc34)CC2)CC1	-21%
Cc1cc(C(=O)NCC(c2ccco2)N(C)C)no1 (stereo not drawn)	10%
CCCCc1ccc(NC(=O)N[C@H](C(=O)O)C(C)CC)cc1 (stereo partly drawn)	-16%
COc1ccc(OC)c(C2CC(=O)OC3=C2C(=O)CC(C)(C)C3)c1 (stereo not drawn)	17%

The list goes on.
mol	VDR inhibitor
CC(NC(=O)COC(=O)CNC(=O)C1CCCCC1)c1ccccc1 (stereo not drawn)	-3%
COC(=O)c1ccc2c(=O)n(CC3CCCO3)c(SCC(=O)NCCc3ccc(S(N)(=O)=O)cc3)nc2c1 (stereo not drawn)	-10%
O=C(NCCC(NS(=O)(=O)OCC(Cl)(Cl)Cl)c1ccccc1)C(F)(F)F (stereo not drawn)	-25%
CCSc1nnc(NC(=O)[C@@H](NC(=O)c2ccc(C(C)(C)C)cc2)C(C)C)s1	-19%
Cc1noc(NS(=O)(=O)c2ccc(N/C=C\C(=O)c3ccc(Br)cc3)cc2)c1C	-13%
COCCCN(C(=O)CSc1nc2ccccc2c(=O)n1C)c1c(N)n(Cc2ccccc2)c(=O)[nH]c1=O	2%
C#CCOCCOCCOCCNc1nc(N2CCN(C(=O)Cn3cc(CCO)nn3)CC2)nc(N2CCN(C(=O)[C@H](Cc3ccc(O)cc3)n3cc(CCO)nn3)CC2)n1	-18%
CC(OC(=O)CCN1C(=O)C2CC=CCC2C1=O)C(=O)Nc1cccc(C#N)c1 (stereo not drawn)	-10%
COc1cccc(C(=O)Nc2cccc3ccccc23)c1	-7%
Cc1ccc(-c2cc(C(=O)Nc3cc(C(=O)O)ccc3C)c3ccccc3n2)cc1	-11%
O=C(COc1cc([N+](=O)[O-])cc2cccnc12)NCCC1=CCCCC1	-5%
COc1ccc(CCNC(=O)C2CC(=O)N(C3CCCCCCC3)C2)cc1OC (stereo not drawn)	-2%
CCN(C(=O)COC(=O)c1cc2c(s1)CCC(C)C2)c1c(N)n(Cc2ccccc2)c(=O)[nH]c1=O (stereo not drawn)	17%
Cc1noc(C)c1C(=O)N1CCN(S(=O)(=O)c2ccc(F)cc2)CC1	0%
CON(C)S(=O)(=O)c1ccc2c(c1)NC(=O)C1CCCN21 (stereo not drawn)	19%

The listing continues:
mol	VDR inhibitor
C[C@H](CO)N1C[C@H](C)[C@@H](CN(C)Cc2ccncc2)Oc2c(NC(=O)CCC(F)(F)F)cccc2C1=O	2%
Cc1ccnc(NC(=O)C2CC(=O)N(c3ccc4c(c3)OCCO4)C2)c1 (stereo not drawn)	5%
O=c1cc(-c2ccccc2)n2c(SCc3c(F)cccc3Cl)nnc2[nH]1	-5%
O=C(COc1coc(CN2CCN(c3cccc(Cl)c3)CC2)cc1=O)NC1CCCC1	-10%
CCCCCCC(=O)Nc1ccc(Cl)cn1	8%
COc1ccc(OC)c(/C=N/NC(=O)c2ccc(=O)[nH]n2)c1	-6%
Fc1cccc(CSc2nc(NCCc3ccccc3)c3ccccc3n2)c1	1%
CCOC(=O)C1CCN(c2cc3c(cc2NC(=O)c2ccccc2F)n(C)c(=O)n3C)CC1	2%
Cc1cc(C)cc(N(CC(=O)NCc2ccco2)S(=O)(=O)c2ccccc2)c1	?
C=CCNC(=O)C1CCN(c2ccc(S(=O)(=O)N3CCOCC3)cc2Cl)CC1	6%
COC(=O)c1ccccc1NC(=S)NC(=O)COc1ccccc1Cl	-16%
Cc1ccc(NC(=O)N2CCN(c3cc(-c4noc(C)n4)ccc3C)CC2)c(C)c1	2%
Cc1cc(C)nc(SCCS(=O)(=O)Cc2ccc(Cl)cc2)n1	-3%
CN1CCN(S(=O)(=O)c2cccs2)CC1	0%
c1ccc2c(c1)[nH]c1c3ccccc3sc21	-1%

Later entries:
mol	VDR inhibitor
CCC1CCCCN1C(=O)Cn1c(=O)oc2cc(S(=O)(=O)N3CCCCC3)ccc21 (stereo not drawn)	-9%
CCc1ccc(NC(=O)C2=CC=CN3CCS(=O)(=O)N=C23)cc1	3%
CCN(CC)S(=O)(=O)c1ccc2c(c1)N(CC(=O)N(C)Cc1ccccc1)C(=O)CO2	-15%
Cc1ccc(CN2C(=O)CCC2C(=O)NC2CCCC2)cc1 (stereo not drawn)	-12%
Cc1ccc(CNC(=O)CN2C(=O)CCn3nc(-c4ccccc4)cc32)cc1	10%
Cc1ccc(CNC(=O)C2CCCN(S(=O)(=O)c3c(C)noc3C)C2)cc1 (stereo not drawn)	1%
O=C1CC(N2CCN(c3ccc(Cl)cc3)CC2)C(=O)N1c1ccccc1 (stereo not drawn)	12%
Cc1ccccc1C(C(=O)NC1CCCC1)N(C(=O)Cc1cccs1)c1ccc2c(c1)OCCO2 (stereo not drawn)	9%
CCCCS(=O)(=O)C1CCS(=O)(=O)C1 (stereo not drawn)	4%
Cc1ccc(N(C(=O)c2csnn2)C(C(=O)NC2CCCCC2)c2cccnc2)cc1 (stereo not drawn)	4%
COCCN1CCn2c(nc3cc(NC(=O)c4ccc(OC)cc4)ccc32)C1	2%
CCN(C(=O)CSc1nnc(-c2ccncc2)n1-c1ccccc1)C1CCS(=O)(=O)C1 (stereo not drawn)	-7%

Retrieved by structure from the list above:
mol	VDR inhibitor
CCCCS(=O)(=O)C1CCS(=O)(=O)C1 (stereo not drawn)	4%
CCc1ccc(NC(=O)C2=CC=CN3CCS(=O)(=O)N=C23)cc1	3%

From PubChem BioAssay

A portion of the library; the hit share may differ from the screen's.
